Screens deposited in PubChem by ICCB-Longwood Screening Facility, Harvard Medical School.
GIV-Gai inh: inhibitors of GIV peptide binding to Galpha-i3, primary screen, biochemical, fluorescence polarization, FITC-GIV GBA peptide, rat Galphai3; Guanine nucleotide-binding protein G(i) subunit alpha-3 (Rattus norvegicus), P08753; 90 min; active compounds read low; scaled: aluminum fluoride 0%, vehicle 100%; percent of control (FP), % (test concentration not listed); 0.42% of 210,000 active; AID 1224905, 2016;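 active = replicate mean at 85% of control or lower, very high polarization wells dropped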;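 also: lower values mean more displacement of the GIV peptide from Galpha-i3; wells of about 15 µL received 100 nL stock; the first replicate is given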
Target sequence (P08753 whole entry, looked up): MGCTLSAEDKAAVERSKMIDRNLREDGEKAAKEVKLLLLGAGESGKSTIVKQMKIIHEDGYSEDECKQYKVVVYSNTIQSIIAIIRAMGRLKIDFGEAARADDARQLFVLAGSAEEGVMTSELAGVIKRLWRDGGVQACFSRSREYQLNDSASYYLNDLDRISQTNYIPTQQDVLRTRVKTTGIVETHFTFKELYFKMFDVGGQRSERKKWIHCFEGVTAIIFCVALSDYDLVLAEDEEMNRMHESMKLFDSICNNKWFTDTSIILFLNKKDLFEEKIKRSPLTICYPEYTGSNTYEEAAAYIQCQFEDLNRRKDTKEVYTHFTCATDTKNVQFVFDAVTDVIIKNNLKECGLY
Sa growth inh: S. aureus growth inhibition at 42 and 30 °C, primary screen, LtaS inhibitor project, RN4220, two temperatures | OD600, 20 h, 42 °C; active compounds read low | relative growth, % (concentration not given with the values) | 0.53% of 170,000 active | AID 720641, 2013;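 active = growth at 42 °C up to 50% and 20 or more points under that at 30 °C, or under 10% at both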;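 also: 300 nL library stock went into each well; scaled to the means of positive and negative controls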
HCMV UL50-53 inh: inhibitors of HCMV UL50-UL53 interaction, biochemical, HTRF; HCMV UL50-UL53 nuclear egress complex (human cytomegalovirus); normalized percent inhibition; inhibition, % (no concentration beside the values); 0.15% of 190,000 active; AID 1918969, 2023;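 active = both replicates at 50% or more, plus weaker picks with an unusually low signal ratio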;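 also: stock transfer was 100 nL into about 20 µL; 0% = negative control wells and 100% = wells with untagged competitor protein; inactives centre near -12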
Sa growth inh second temp: also measured in Sa growth inh; calls as there; relative growth, %; measured here: growth at 30 °C;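 optical density after 20 h as mean of two plates; 100% = untreated growth and lower means inhibition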
The depositor's hits bear a star; . = not tested or not shown; & = joins results of further samples.

SMILES	GIV-Gai inh	Sa growth inh	Sa growth inh second temp	HCMV UL50-53 inh
O=C(NCCc1ccccc1)c1ncn[nH]1	103	104	78	-4
CCN=c1scc(-c2ccc(OC)cc2)n1/N=C(\C)c1ccc(C)o1	.	100	91	-1
CC1CCN(S(=O)(=O)c2cccc(C(=O)N3CCN(c4ccc(F)cc4)CC3)c2)CC1	110	110	95	-12
COc1ccc(CCNC(=O)Cn2c(=O)c3sccc3n(CC(=O)N3CCCCC3C)c2=O)cc1OC (stereo not given)	107	96	92	0
Cc1cc2c(c(=O)o1)C(c1ccc(C(F)(F)F)cc1)C(C(=O)OC(C)C)=C(N)O2 (stereo not given)	.	94	85	-15
Cn1cccc1CNC1CCCCCCC1	102	94	93	.
CCCC(C(=O)Nc1nccs1)c1ccccc1 (stereo not given)	.	98	94	-21
Nc1cc(Cl)ccc1C(=O)N1CCSCC1	95	82	79	-30
Nc1nnnn1/N=C/c1ccccc1O	98	110	118	-49
COC(=O)C1=C(N)OC2=C(C(=O)CC(c3ccccc3)C2)C1c1cc(OC)ccc1OC (stereo not given)	111	.	.	9
O=C(c1oc(=O)c2ccccc2c1-c1ccccc1)N1CCOCC1	99	103	94	1
O=C(NCCCN1CCCC1=O)Nc1ccc(Cl)cc1	104	87	82	-14
COc1cccc(S(=O)(=O)Nc2ccc(C(=O)N3CCN(C(=O)c4ccco4)CC3)cc2)c1	107	91	106	5
CC(=O)NC(C)c1nc2ccccc2n1CC(=O)Nc1cccc(C)c1C (stereo not given)	.	111	85	-15
CCCCCC(=O)Nc1ccc(C(=O)COC(=O)c2cccnc2N2CCCC2)cc1	.	97	97	-4
COc1ccc(-c2nc(-c3cccs3)no2)cc1OC	105	104	95	-4
CCOC(=O)C1CCN(Cc2cccc(OC)c2O)CC1	.	106	94	2
CCn1c(CNC(=O)c2ccc(OC)cc2)nnc1SCC(=O)Nc1ccc(F)cc1	100	101	90	1
CCC(C)NC(=O)C1COc2ccccc2O1 (stereo not given)	100	84	88	-16
COc1ccc(S(=O)(=O)NCC2CCC(C(=O)O)CC2)cc1 (stereo not given)	105	84	93	.
c1ccc(CN2CCC(NCC3CCCO3)CC2)cc1 (stereo not given)	.	108	90	-5
Cc1ccc(CNC(=O)CSc2nc3ncccc3n3cccc23)cc1	130	.	.	-62
COC(=O)c1nnn(CC(=O)Nc2c(C)cccc2C)c1N	102	90	84	1
N#CCc1ccc(OCc2ncc(C(F)(F)F)cc2Cl)cc1	98	99	97	2
O=C([C@H](Cc1ccccc1)N1Cc2ccccc2C1=O)N1CCN(c2ccccc2)CC1	102	119	83	.
CCCCn1c(=O)c2sccc2n2c(SCC(=O)NC3CCCCC3)nnc12	102	.	.	-12
CCCCN(CCCC)c1cc(=O)n2c(-c3ccc(Cl)cc3)csc2n1	116	.	.	-3
CCC1SC(=Nc2ccc(C)cc2)NC1=O (stereo not given)	.	103	94	7
CC(C)c1ccc(S(=O)(=O)N2CCN(C(=O)n3ccnc3)CC2)cc1	.	98	84	18
O=C(NN1CCOCC1)c1ccccc1NS(=O)(=O)c1ccc(F)cc1F	.	91	97	-9
O=C(Cn1ncc2c(=O)oc3ccccc3c21)NCCCN1CCN(c2ccccc2F)CC1	98	97	79	.
CC(NC(=S)Nc1ccc(S(N)(=O)=O)cc1)c1ccc2c(c1)OCO2 (stereo not given)	101	117	98	-10
O=C(Nc1cccc(C(F)(F)F)c1)Nc1ccc2c(c1)OCO2	.	47	66	-2
Cn1nc(C(=O)N2CCN(c3cccc(Cl)c3)CC2)c2c1-c1ccccc1S(=O)(=O)C2	103	113	73	-20
COc1ccc(CCNC(=O)CSc2cc(Cl)nc3ccc(C)cc23)cc1OC	117	83	90	.
Cc1ccc(-c2csc3c(=O)[nH]cnc23)cc1	100	.	.	-17

Ordered by the number under Sa growth inh second temp (falling): some entries from above
smiles	GIV-Gai inh	Sa growth inh second temp
O=C(NN1CCOCC1)c1ccccc1NS(=O)(=O)c1ccc(F)cc1F	.	97
COc1ccc(CCNC(=O)CSc2cc(Cl)nc3ccc(C)cc23)cc1OC	117	90
Cn1nc(C(=O)N2CCN(c3cccc(Cl)c3)CC2)c2c1-c1ccccc1S(=O)(=O)C2	103	73

More compounds follow:
SMILES	GIV-Gai inh	Sa growth inh	Sa growth inh second temp	HCMV UL50-53 inh
COC(=O)c1cc2occc2n1Cc1nc(-c2ccccc2)oc1C	106	120	84	-15
Cc1cc(C(O)C(F)(F)F)c(C)n1CC(C)C (stereo not given)	.	102	92	-7
CCC(=O)N1N=C(c2ccc(OC)cc2)CC1c1ccccc1O (stereo not given)	.	120	96	6
COc1cccc(NC(=O)CSc2nnc(COc3ccc(Cl)cc3)o2)c1	101	105	81	-4
O=C1CC(c2ccccc2)n2nc(N3C(=O)CCC3=O)nc2N1 (stereo not given)	98	120	80	.
COc1cc(OC)c(NC(=O)C(C)n2nc(-c3ccc(C)c(C)c3)ccc2=O)cc1Cl (stereo not given)	102	103	86	-34
NC(=O)CSc1oc(-c2ccco2)nc1S(=O)(=O)c1ccc(Cl)cc1	100	96	80	-2
COc1ccc(OC)c(NC(=O)Cc2coc3ccc(C(C)C)cc23)c1	102	102	85	-1
Cc1cc(C)cc(Nc2nc3ccc(C)cc3n3nnnc23)c1	111	.	.	-24
O=C1CCCC/C1=C/Nc1ccc2c(c1)OCO2	103	113	88	-38
Cc1cccc(N(C)C(=O)Cn2ncc3c(=O)oc4ccccc4c32)c1	106	91	91	-9
CC(C)CN(CCNC(=O)c1cn(C)c2ccc(S(=O)(=O)N3CCOCC3)cc2c1=O)CC(C)C	101	97	89	-31
CC(C)(C)c1ccc(CC/C=N/O)cc1	108	96	93	-1
O=C1CCCC2=C1C(c1ccc(N3CCOCC3)cc1)c1c([nH]c(=O)[nH]c1=O)N2 (stereo not given)	.	91	88	-6
O=C(CC(C(=O)O)n1ccnc1)c1ccc(C2CCCCC2)cc1 (stereo not given)	.	93	59	0
COc1ccccc1-c1nnc(SC(C)c2nc3ccccc3c(=O)[nH]2)n1C (stereo not given)	.	100	102	-27
Cc1c(C)c(C)c(CSc2nnc(CC#N)n2C)c(C)c1C	99	100	84	-19
CCCNCc1nnc(-c2ccco2)o1	.	96	91	-13
CN(CC(=O)Nc1sccc1C#N)Cc1ccccc1	.	83	98	6
COc1ccccc1NC(=O)c1cc2c([nH]c1=O)CC(C)(C)CC2=O	105	100	87	-14
COc1ccc(CNC(=O)Cc2csc3nc(-c4ccc(C)cc4)cn23)cc1	102	108	87	.
CC1=NN(C(=O)c2ccccc2)C(C)(O)C1(C)C (stereo not given)	98	99	71	2
COc1ccc(-c2nc(Cn3c(SCc4cccc(C(F)(F)F)c4)nc4cccnc43)c(C)o2)cc1OC	101	117	95	.
O=c1ccc(Cc2ccccc2Br)n[nH]1	101	.	.	-4
COC(=O)CC1=CC(SCC(=O)Nc2ccc3c(c2)OCCO3)=Nc2ccccc2N1	107	.	.	-46
O=C(Nc1ncc(C(F)(F)F)cc1Cl)c1cc2c(s1)CCC2	.	108	75	-35
CCOC(=O)c1nc(NCc2cccnc2)c2ccccc2n1	109	118	93	-22
O=C(CCC(=O)n1ncc2ccc(Cl)cc21)NC1CCCc2ccccc21 (stereo not given)	107	93	81	.
OCC1(CO)CSC(=NCc2ccc(F)cc2)N1	107	99	89	0
CC12CCC(c3c(C(F)(F)F)nc(N)nc31)C2(C)C (stereo not given)	106	118&90	25&54	-17&19
N#C/C(=N\Nc1ccccc1)C(=O)C1CC1	105	81	28	-85
CC1CN(C(=O)COc2ccccc2C#N)CC(C)O1 (stereo not given)	.	87	91	-11
CCCn1nc(C(=O)N/N=C/c2ccc(O)cc2)c2ccccc2c1=O	.	102	94	-16
Cc1ccc(NC(=O)c2cc(N(C)C)ccc2[P+](=O)O)cc1	.	93	95	-25
O=c1cc(CN2CCCC2)nc2nc(NCc3ccc(Cl)cc3)[nH]n12	101	.	.	-34
COc1ccc(NC(=O)Cc2c(C)nn(-c3nc(-c4ccccc4)cs3)c2C)c(OC)c1	99	.	.	8
Cc1cc(Cl)ccc1NC(=O)c1[nH]c(C)c(S(=O)(=O)N2CCCC2)c1C	108	.	.	-31
COc1ccc(Br)cc1C1C(C(=O)OC(C)(C)C)=C(C)Nc2nnnn21 (stereo not given)	105	.	.	4
Cc1nc2cc(-c3ccccc3)nn2c(C)c1CCC(=O)O	99	108	86	-21
CC1(C)NC(=S)N(c2nc3ccccc3s2)N1	.	75	49	-4
COC(=O)c1ccc(OC)cc1OC(=O)COc1cccc(C)c1	.	101	94	-16
CCCc1ccc(C(=O)CC#N)cc1	.	102	66	10
N#Cc1c(-c2ccccc2Cl)cc(C2CC2)nc1N	.	107	96	-2
O=C(C1CCN(S(=O)(=O)c2ccc3[nH]c4c(c3c2)CCCCC4)CC1)N1CCCC1	108	103	89	4
CCN(Cc1ccccc1)S(=O)(=O)c1cc(-c2ccc(=O)n(-c3c(C)noc3C)n2)ccc1OC	109	.	.	-20
CC(C)CNC(=O)C1CC(=O)N(Nc2ccccc2)C1 (stereo not given)	.	98	90	-34
CC(=O)N1c2ccc(S(=O)(=O)N3CCCC3C(=O)Nc3cc(C)ccn3)cc2CC1C (stereo not given)	106	.	.	-6
c1ccc(CC2CCN(Cc3nnc(-c4ccc5c(c4)OCO5)o3)CC2)cc1	111&101	105	97	0&-18
COc1ccc(C(CC(=O)O)CC(=O)O)cc1	99	104	90	-15
Cc1cccc(CNC(=O)Cn2nc(C)c3nn(-c4ccc(Cl)cc4)c(C)c3c2=O)c1	95	105	75	.
Cc1[nH]c(=S)[nH]c1Cc1ccccc1	.	102	70	-2
COc1cc(C2C(C(=O)OC3CCCC3)=C(C)NC3=C2C(=O)CC(C)(C)C3)cc(Br)c1O (stereo not given)	108	.	.	15
CCOC(=O)c1cc2c(ccn2-c2ccc(F)cc2)n1CC(=O)N1C(C)CCCC1C (stereo not given)	109	106	62	4
CCCCCc1c(C)nn(-c2nc(CC(=O)Nc3nccs3)cs2)c1C	105	.	.	-38
COc1ccc(C(=O)c2oc3ccccc3c2NC(=O)c2cccc(OC)c2)cc1	106	109	89	-10
CCSc1ncc(Cl)c(C(=O)Nc2ccc(S(=O)(=O)Nc3ncccn3)cc2)n1	97	102	87	-5
C/C(CCc1ccc2c(c1)OCO2)=N\N=C1/NC(=O)CC(C(=O)O)S1 (stereo not given)	97	97	95	-29
CCN1CCCC1CNc1ncnc2onc(-c3ccc(F)cc3)c12 (stereo not given)	99	92	89	-26
CCCN(CCC)C(=O)CSc1nnc2cc(C)c3ccccc3n12	105	95	84	-37
Cc1cc(C)c(NC(=S)NC(=O)c2ccccc2)c(C)c1	106	87	91	.

(next part)
SMILES	GIV-Gai inh	Sa growth inh	Sa growth inh second temp	HCMV UL50-53 inh
CCCCCC(=O)c1ccc(O)cc1O	105	51	10	-7
COc1ccc(N(CC(=O)Nc2cc(Cl)ccc2C)S(=O)(=O)c2c(C)noc2C)cc1	107	99	79	-1
Cc1[nH]c2ccc(-c3nnc(SCC(=O)NCc4nc5ccccc5[nH]4)o3)cc2c1C	98	.	.	-12
O=C(C1CC1)N1CCc2cc(Br)cc(S(=O)(=O)N3CCN(c4cccc(C(F)(F)F)c4)CC3)c21	102	112	89	-4
CCCCCn1c(=O)c2ccccc2n2c(CN3C(=O)c4ccccc4C3=O)nnc12	.	90	91	-7
O=C(COC(=O)c1cccs1)NC12CC3CC(CC(C3)C1)C2	.	117	84	-25
NS(=O)(=O)c1ccc(NC(=O)Cn2ncc3c2-c2ccccc2OC3)cc1	97	103	92	-2
COC(=O)CC1OC(=O)c2ccccc21 (stereo not given)	.	94	82	-11
COc1ccc(NC(=O)CSc2nnc(NC(=O)Nc3ccccc3)s2)c(OC)c1	94	119	88	.
CN1c2ccsc2C(=O)/C(=C\Nc2ccccc2Cl)S1(=O)=O	100	102	98	2
CCOc1ccc(NC(=O)c2ccc(CN3C(=O)C(C)=C(c4ccc(C)cc4)S3(=O)=O)cc2)cc1	99	95	91	.
Nc1cccc(F)c1-c1nc(-c2ccncc2)n[nH]1	103	103	92	2

Entries shown so far that have an NH in an aromatic ring, in the order listed:
SMILES	GIV-Gai inh	Sa growth inh	Sa growth inh second temp	HCMV UL50-53 inh
O=C(NCCc1ccccc1)c1ncn[nH]1	103	104	78	-4
Cc1ccc(-c2csc3c(=O)[nH]cnc23)cc1	100	.	.	-17
O=C1CCCC2=C1C(c1ccc(N3CCOCC3)cc1)c1c([nH]c(=O)[nH]c1=O)N2 (stereo not given)	.	91	88	-6
COc1ccccc1-c1nnc(SC(C)c2nc3ccccc3c(=O)[nH]2)n1C (stereo not given)	.	100	102	-27
COc1ccccc1NC(=O)c1cc2c([nH]c1=O)CC(C)(C)CC2=O	105	100	87	-14
O=c1ccc(Cc2ccccc2Br)n[nH]1	101	.	.	-4
O=c1cc(CN2CCCC2)nc2nc(NCc3ccc(Cl)cc3)[nH]n12	101	.	.	-34
Cc1cc(Cl)ccc1NC(=O)c1[nH]c(C)c(S(=O)(=O)N2CCCC2)c1C	108	.	.	-31
O=C(C1CCN(S(=O)(=O)c2ccc3[nH]c4c(c3c2)CCCCC4)CC1)N1CCCC1	108	103	89	4
Cc1[nH]c(=S)[nH]c1Cc1ccccc1	.	102	70	-2
Cc1[nH]c2ccc(-c3nnc(SCC(=O)NCc4nc5ccccc5[nH]4)o3)cc2c1C	98	.	.	-12
Nc1cccc(F)c1-c1nc(-c2ccncc2)n[nH]1	103	103	92	2
